ALR H2O2 inh: inhibitors of human sulfhydryl oxidase ALR. P55789. purified ALR, DTT oxidation, H2O2 HRP-luminol luminescence. inhibition, % (test concentration not listed). hit rate 3.8% among 290,000. AID 485317;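 active = mean and each replicate at 75% or more; inconclusive = only one of the two met; inactive = neither met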;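 also: stock transfer was 7.5 nL into about 7.5 µL; 0% = neutral wells and 100% = wells with inactivated enzyme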
Target sequence (P55789 whole entry, looked up): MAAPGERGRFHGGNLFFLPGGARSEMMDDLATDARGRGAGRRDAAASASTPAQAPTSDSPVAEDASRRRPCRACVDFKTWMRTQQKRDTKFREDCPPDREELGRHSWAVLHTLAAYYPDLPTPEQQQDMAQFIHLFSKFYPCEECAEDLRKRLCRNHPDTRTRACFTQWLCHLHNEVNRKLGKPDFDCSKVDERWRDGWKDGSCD
FGF22 binding: binders of recombinant human FGF22 by thermal shift; hit rate 1.5% among 340,000; SYPRO orange fluorescence; percent of sucrose octasulfate shift, DMSO zero; Q9HCT0; calls only at 9.99 µM;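 active = melting point raised past a set limit in the mean and every replicate; inconclusive = no clear call; three in four hits are not shown here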
Target sequence (Q9HCT0 whole entry, looked up): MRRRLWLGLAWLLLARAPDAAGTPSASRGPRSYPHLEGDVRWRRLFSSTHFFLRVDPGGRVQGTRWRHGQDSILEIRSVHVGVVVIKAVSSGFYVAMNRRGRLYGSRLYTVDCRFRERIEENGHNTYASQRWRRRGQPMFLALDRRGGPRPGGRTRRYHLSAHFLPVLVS
Ecoli rRNA inh: inhibits bacterial ribosomal RNA function over humanized ribosomes. E. coli WT GFP vs humanized-ribosome RFP mutants, fluorescence, 24 h; hits give low values; DMSO median 0, no signal -100. GFP signal change (wild-type ribosome), % (no concentration beside the values). hit rate 1.6% among 350,000;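 active = significant combined selectivity score with lowered wild-type GFP, culture density cut under 30%, mutant RFP and density less affected; inactive = any of these conditions unmet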; also: one replicate is shown; some compounds called inactive have numbers as strong as hits
MLL AF4-AF9 inh: MLL-AF4/AF9 protein interaction inhibition; P42568; AlphaScreen, biotin-AF4 peptide binding to FLAG-AF9; inhibition, % at 10 µM; hit rate 0.47% among 350,000; AID 651704;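 active = every replicate reaching a set inhibition limit, whatever the replicate mean, cut at about 25% in these data; inconclusive = mean inhibition reaches that limit but some replicates miss it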;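 also: 0% = plate neutral control median and 100% = total signal loss; the record names both 10 and 1 µM as test concentration; the first replicate is given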
Vif TR-FRET: inhibitors of Vif binding to APOBEC3G peptide, primary screen, biochemical, TR-FRET, GST-Vif 1-94, biotin-A3G peptide, dose response retest (AID 1117319). TR-FRET GST-Vif / biotin-A3G peptide binding; higher % means a stronger effect; test concentration not given here; strong numbers were not always called active. inhibition, %, or IC50 in µM where a hit was titrated. hit rate 0.57% among 260,000;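 active = above the screen mean plus three standard deviations and confirmed in dose response; inconclusive = results disagree or hit not tested in dose response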;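 also: Vif residues 1-94 fused to GST binding biotinylated APOBEC3G peptide 110-148; 0% = full assay without inhibitor and 100% = GST in place of GST-Vif; retest series ran down from 100 µM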
HNF4A DNA FP: change in binding of human HNF4 alpha to DNA; P41235; HNF4a-FITC DNA binding, fluorescence polarization, 1 h; activity change, % at 10 µM; hit rate 0.3% among 360,000; AID 1224865; in the data active = activity change above about 30%, passing the limit was not always enough;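 also: controls were the assay level and a saturating level of protein; the project sought stronger binding though the title names inhibitors; some compounds called inactive have numbers as strong as hits; positive values seem to mean higher polarization but the record does not say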
Target sequence (P41235 whole entry, looked up): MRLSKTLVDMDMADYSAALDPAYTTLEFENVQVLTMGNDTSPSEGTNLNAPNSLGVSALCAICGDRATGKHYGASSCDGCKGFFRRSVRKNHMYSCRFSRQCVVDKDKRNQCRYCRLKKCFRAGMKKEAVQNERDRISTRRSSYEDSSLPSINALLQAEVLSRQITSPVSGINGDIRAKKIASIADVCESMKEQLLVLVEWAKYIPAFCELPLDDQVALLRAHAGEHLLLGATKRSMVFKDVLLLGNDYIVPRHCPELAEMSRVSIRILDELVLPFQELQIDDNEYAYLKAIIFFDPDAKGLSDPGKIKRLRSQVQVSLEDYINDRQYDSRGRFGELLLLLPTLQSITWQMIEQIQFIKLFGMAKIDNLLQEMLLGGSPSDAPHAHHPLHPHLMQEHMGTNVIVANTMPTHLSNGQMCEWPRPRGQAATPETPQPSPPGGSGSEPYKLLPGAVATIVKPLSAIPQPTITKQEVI
E coli growth: E. coli growth inhibition. Escherichia coli growth, OD600, 23 h; hits give low values. OD600 absorbance (concentration not given with the values). hit rate 0.21% among 330,000. AID 1053175;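 active = OD600 absorbance below the run mean of sample wells minus 3.6 SD, in any replicate, cut at about 0.56 in these data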;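 also: stock transfer was 300 nL into about 60 µL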
Ecoli rRNA inh OD600: recorded beside Ecoli rRNA inh, whose call it bears; OD600 change, %; measured here: OD600 growth;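 optical density of the mix in the first replicate; 0 = DMSO median and -100 = no signal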
Ecoli rRNA inh RFP: recorded beside Ecoli rRNA inh, whose call it bears; RFP signal change, %; measured here: RFP humanized mutant strains;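 first replicate; 0 = DMSO median and -100 = no signal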
Starred values were filed as active, the others as inactive; i = inactive; ? = inconclusive; nt = not tested or not shown. Not all compounds are listed; rates above refer to the full screens.

SMILES | ALR H2O2 inh | FGF22 binding | Ecoli rRNA inh | Ecoli rRNA inh OD600 | Ecoli rRNA inh RFP | MLL AF4-AF9 inh | Vif TR-FRET | HNF4A DNA FP | E coli growth
COc1ccc(C(=O)Nc2ccc(NC(=O)C(C)C)nc2)cc1 | -79 | i | 1 | 6 | -0.8 | -1.7 | nt | 0.6 | 0.73
COCc1ccc(CN2CCCC(CO)(Cc3cccc(OC)c3)C2)o1 (centres undefined) | -4 | i | 3 | 6 | -0.3 | 9.1 | 8% | -2.1 | 0.65
COc1ccc(C(C(=O)NC2CCCC2)N(Cc2cccnc2)C(=O)Cc2cccs2)c(OC)c1 (centres undefined) | nt | i | 7 | 5 | 4.5 | 0.6 | nt | -1.5 | 0.69
C[C@@H]1CCCCO[C@@H](CN(C)C)[C@H](C)CN([C@@H](C)CO)C(=O)c2cc(NC(=O)Nc3ccc4c(c3)OCO4)ccc2O1 | nt | i | 1 | -1 | -0.3 | -1.3 | nt | nt | nt
CCN(CC)C(=O)Cn1c(=O)n(-c2ccccc2)c(=O)n1CC(=O)N(CC)CC | 1 | i | -2 | -1 | 5.3 | 1.4 | -2% | -0.5 | 0.71
O=c1c2cc3c(cc2[nH]c(=S)n1CCN1CCOCC1)OCO3 | 1 | nt | nt | nt | nt | nt | -6% | 5.2 | 0.74
CCN(CC)C(=S)Nc1ccc(OC)cc1 | 12 | nt | nt | nt | nt | nt | -11% | -2.4 | 0.69
CN=C(Nc1ccc(Cl)cc1)c1cccc(C(F)(F)F)c1 | 2 | nt | nt | nt | nt | nt | 1% | 3.1 | 0.65
Cc1ccc(C)n1NC(=O)c1ccc([N+](=O)[O-])cc1 | 2 | i | 5 | 10 | -0.5 | 0.2 | ? | 2.4 | 0.66
COC1CCN(C(=O)C2CCC(=O)N(C3CCCCCC3)C2)CC1 (centres undefined) | 0 | i | 18 | 14 | -1.5 | -2.1 | -6% | -2.6 | 0.68
CCn1c2ccccc2c2cc(NC(=O)COc3ccccc3OC)ccc21 | -2 | nt | nt | nt | nt | nt | nt | 1.3 | 0.71
CCC1CCCCN1C(=O)NC(=O)c1ccccc1 (centres undefined) | -1 | i | 7 | 6 | -2.1 | -3.8 | nt | -1.9 | 0.7
CCOC(=O)C1(CCOc2ccccc2)CCN(Cc2ccc(COC)o2)CC1 | -1 | nt | nt | nt | nt | nt | 0% | -0.3 | 0.7
CC(=O)Nc1ccc(Nc2ncc([N+](=O)[O-])c(Nc3ccc(NC(C)=O)cc3)n2)cc1 | -6 | nt | nt | nt | nt | nt | -6% | -0.6 | 0.69
CC(=O)Nc1ccc(S(=O)(=O)N2CCN(C(=O)c3ncoc3-c3cccc(F)c3)CC2)cc1 | -20 | i | -4 | 1 | -1.7 | 0.7 | nt | -0.1 | 0.65
CC(C)C#Cc1cnc2c(c1)C(=O)N([C@H](C)CO)C[C@@H](C)[C@@H](CN(C)C(=O)CC1CC1)O2 | nt | i | 5 | 5 | -2.1 | -2.4 | nt | nt | nt
CC(C)(C)NC(=O)C(c1ccccc1F)N(Cc1ccco1)C(=O)c1csnn1 (centres undefined) | -7 | nt | nt | nt | nt | nt | -3% | -2.2 | 0.67
COc1ccc(CNC(=O)c2sc(=O)n(Cc3ccccc3C)c2C)cc1 | nt | i | 0 | 0 | -0.2 | -25 | nt | 1.5 | nt
Cc1c(C(=O)N2CCCCC2C)sc2nc3n(c(=O)c12)CCC3 (centres undefined) | 0 | i | 2 | 6 | -1.8 | 9.5 | nt | -1.4 | 0.69
Cc1ccc(S(=O)(=O)N(C)C[C@@H]2OCCCC[C@H](C)Oc3ccc(NC(=O)CCCN(C)C)cc3C(=O)N([C@@H](C)CO)C[C@H]2C)cc1 | nt | i | 0 | -1 | 0.6 | 2.4 | nt | nt | nt
Nc1cccc(Cl)c1N1CCOCC1 | -6 | nt | nt | nt | nt | nt | 1% | -2.7 | 0.66
Cc1ccc(NC(=O)COC(=O)CNC(=O)c2ccc(Br)cc2)c(C)c1 | 1 | i | -15 | -15 | 9.9 | -0.9 | 3% | 1.1 | 0.69
COc1cc(C(CC(=O)N2CCN(c3ccccc3)CC2)c2c(OC)cc(OC)c3ccc(=O)oc23)cc(OC)c1OC (centres undefined) | -12 | i | 4 | 4 | -2.0 | 13 | nt | 0.6 | 0.62
COc1ccc(-c2c(N)nnc3c2[nH]c2ccccc23)cc1OC | -11 | nt | nt | nt | nt | nt | 28% | 1.4 | 0.77
COc1ccccc1NC(=S)N=Nc1c(O)[nH]c2ccc(Br)cc12 | nt | i | -1 | -5 | 6.7 | -109 | 27% | -2.4 | 0.63
CC(C)(C)c1cc2ncnc(N3CCCCC3)c2s1 | 4 | nt | nt | nt | nt | nt | -1% | 2.7 | 0.67
COc1ccc(/C=C/C(=O)O)cc1S(=O)(=O)NCc1ccccc1 | 14 | i | 13 | 7 | -1.1 | 2.5 | 8% | 0.1 | 0.7
O=C(c1cc(COc2c(F)cccc2F)on1)N1CCC(c2ccccc2Cl)C1 (centres undefined) | -17 | i | -7 | -21 | -5.0 | -6.0 | nt | -3.0 | 0.66
COCC(=O)Nc1ccc2c(c1)OC[C@@H](C)N(Cc1ccccn1)C[C@@H](C)[C@@H](OC)CN(C)C2=O | nt | i | 0 | -4 | -0.2 | -4.7 | nt | nt | nt
C=CCn1c(NCc2ccccc2)nc2ccccc21 | 34 | nt | nt | nt | nt | nt | -6% | 0.7 | 0.66
Cc1ccc(C(=O)NNC(=O)c2n[nH]c(=O)c3ccccc23)cc1C | 4 | i | 14 | 9 | 2.7 | -1.6 | -1% | -1.6 | nt
CCOC(=O)c1c2c(n(Cc3ccccc3)c1C)C(=O)C(=O)c1ccccc1-2 | nt | i | -42 | -71 | -8.6 | 5.3 | 79µM* | -0.1 | nt
CC(NC(=O)C(=O)NN=C1CCCCCCC1)c1ccccc1 (centres undefined) | -5 | nt | nt | nt | nt | nt | 5% | 0.9 | 0.72
CCOC(=O)c1c(C)[nH]c(C(=O)OCc2ccccc2F)c1C | -8 | i | 1 | 0 | 3.0 | -3.0 | 0% | 1.1 | 0.71
COc1ccc(-c2cc(C(=O)Nc3c(C)n(C)n(-c4ccccc4)c3=O)c3ccccc3n2)c(OC)c1 | 0 | i | -1 | 2 | 3.4 | 1.0 | nt | 5.5 | 0.68
O=C(c1ccccc1)N(Cc1nc2ccccc2c(=O)[nH]1)C1CCCCC1 | 38 | i | -26 | -33 | -5.6 | -2.5 | -6% | -2.8 | 0.71

Some entries already given, limited to Ecoli rRNA inh OD600 and Ecoli rRNA inh RFP.
| canonical_smiles | Ecoli rRNA inh OD600 | Ecoli rRNA inh RFP |
| --- | --- | --- |
| Cc1ccc(C(=O)NNC(=O)c2n[nH]c(=O)c3ccccc23)cc1C | 9 | 2.7 |
| CCOC(=O)c1c2c(n(Cc3ccccc3)c1C)C(=O)C(=O)c1ccccc1-2 | -71 | -8.6 |

The listing continues.
SMILES | ALR H2O2 inh | FGF22 binding | Ecoli rRNA inh | Ecoli rRNA inh OD600 | Ecoli rRNA inh RFP | MLL AF4-AF9 inh | Vif TR-FRET | HNF4A DNA FP | E coli growth
O=C(c1ccc(Cl)c(Cl)c1)N1CCC(=O)N(C(COCc2cccc(Cl)c2)Cc2ccccc2)CC1 (centres undefined) | -17 | i | nt | nt | nt | -2.7 | 20% | 0.4 | 0.73
Cc1ccccc1C(=O)NC1CCN(Cc2nnnn2Cc2ccc(F)cc2)CC1 | -2 | nt | nt | nt | nt | nt | -3% | 0.8 | 0.7
CSc1ccc(CCNC(=O)C2CCCN(S(=O)(=O)N3CCOCC3)C2)cc1 (centres undefined) | -2 | i | -3 | -3 | -2.3 | -2.8 | nt | 2.2 | 0.74
O=C(COC(=O)c1ccccc1NCc1ccco1)Nc1ccc2c(c1)OCO2 | -14 | nt | nt | nt | nt | nt | 6% | -0.9 | 0.79
CCc1cc(C(=O)N2CCN(C(=O)c3ccco3)CC2)sc1C | -4 | i | -2 | -2 | 0.5 | 0.3 | 4% | -0.3 | 0.67
COCCn1c(SCC(=O)Nc2ccc3[nH]c(=O)[nH]c3c2)nc2ccccc2c1=O | -11 | i | -2 | -9 | -0.9 | -2.1 | nt | 2.7 | 0.65
CCN(CC(=O)Nc1ccc(OC)cc1)C(=O)c1ccc2c(c1)NC(=O)C(C)S2 (centres undefined) | 3 | i | -1 | 5 | -2.2 | -4.0 | 6% | 0.7 | 0.66
Cn1c(SCC#N)nnc1-c1cccnc1 | 0 | i | 8 | 8 | -1.2 | -3.4 | -4% | 3.6 | 0.7
Cc1nc(C(=O)O)cc2c1[nH]c1ccccc12 | -5 | i | 8 | 11 | -4.5 | -2.5 | nt | 5.2 | 0.67
COc1ccc(-c2csc(-c3[nH]cnc3N)n2)cc1 | -24 | i | 3 | 5 | -0.2 | 2.3 | -3% | 11 | 0.65
O=C(Cc1ccccc1)N[C@H]1C=C[C@H](CC(=O)N2CCOCC2)O[C@H]1CO | nt | i | -3 | 7 | -4.7 | 4.1 | nt | nt | nt
COCCn1c(C)cc(C(=O)CSc2nc(C)c(C)c(C)n2)c1C | -1 | nt | 15 | 11 | 11 | -0.5 | 2% | 0.1 | 0.68
Cc1cc(Cl)ccc1OCCCC(=O)NCC1CCCO1 (centres undefined) | -17 | nt | nt | nt | nt | nt | 29% | -0.6 | 0.7
COc1ccc(CNC(=O)C[C@H]2C=C[C@H](NC(=O)c3cccc(F)c3)[C@@H](CO)O2)cc1 | nt | i | 1 | 12 | -0.5 | -2.4 | nt | nt | nt
COc1ccc(N(C)C(=O)Nc2ccc3c(c2)nnn3C)cc1 | -14 | i | 4 | 13 | 2.5 | -4.3 | 27% | 1.2 | 0.67
O=C(CCCN1C(=O)/C(=C/c2ccccc2)SC1=S)N1CCOCC1 | nt | i | -11 | -9 | 1.1 | 16 | nt | -1.9 | 0.66
O=C(Nc1cccc2cccnc12)c1ccccc1Cl | 0 | i | -3 | -17 | -2.5 | -6.4 | nt | 1.4 | 0.65
C[C@H](CO)N1C[C@H](C)[C@H](CN(C)CC2CCCCC2)Oc2ccc(NS(C)(=O)=O)cc2C1=O | nt | i | 5 | 0 | -2.5 | -6.4 | nt | nt | nt
O=C(c1ccccn1)N1CC2(C1)[C@H](c1ccccc1)[C@@H](CO)N2Cc1ccc(F)cc1 | nt | i | -4 | 0 | 2.2 | 0.4 | nt | nt | nt
CCc1noc(C)c1C(=O)OC(C)C(=O)c1c(C)[nH]c2ccccc12 (centres undefined) | 3 | i | -10 | -32 | -2.6 | 3.4 | nt | 0.2 | 0.69
NC(=O)C1CCN(C(=O)c2cc(-c3ccc(Cl)s3)nc3ccccc23)CC1 | 2 | i | -37 | -51 | -9.6 | 2.5 | nt | -0.5 | 0.62
CCCCc1ccc(NC(=O)CC(C)C)cc1 | 2 | i | -20 | -30 | -8.7 | -1.2 | nt | 1.6 | 0.68
O=C(CCc1nnc(-c2ccc3c(c2)OCO3)o1)N1CCC(c2ccc(F)cc2)C1 (centres undefined) | nt | i | 6 | 7 | -0.1 | -3.5 | -1% | 5.3 | 0.66
CCN(CC(=O)Nc1c(F)cccc1F)C(=O)C1CC(=O)N(c2ccc3c(c2)OCCO3)C1 (centres undefined) | 0 | i | 10 | 4 | -0.3 | -1.6 | 0% | -0.7 | 0.7
Cc1ccc(N2CC(O)Cn3c2nc2c3c(=O)n(C)c(=O)n2C)cc1 (centres undefined) | -1 | i | 1 | 8 | -0.1 | 4.9 | 9% | -2.5 | 0.62
OCCCn1c(CCNc2nc(-c3ccc(F)cc3)cs2)nc2cc(C(F)(F)F)ccc21 | -1 | i | -10 | -15 | -0.7 | nt | nt | -3.0 | 0.68

Assay outcomes: PubChem BioAssay, several laboratories
